Assay outcomes (PubChem BioAssay)
CSC inhib: cancer stem cell inhibition; cancer stem cell-like cells viability, luminescence; inhibition, % at 7.5 µM; 300,000 tested, 1.1% active; AID 2717;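 active = mean at 75% or more and at least half the replicates too; inconclusive = mean and replicates disagree; tested in HMLE shEcad cells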;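 note: 0% = median of negative and 100% = median of positive control wells; the first replicate is given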
UUG fidelity: modulators of start codon recognition fidelity in yeast | S. cerevisiae UUG-firefly luciferase reporter, luminescence/redox ratio | activity score, % at 18.7 µM | 350,000 tested, 0.13% active | AID 602363;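 active = replicate mean at a twofold rise or more, about +100% in these data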;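 note: firefly luciferase made from a UUG start codon reports start codon fidelity; reporter light over untreated wells divided by growth signal over untreated wells; some hits fall short of that in this replicate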
eIF4H FP inh: inhibitors of RNA binding by human eIF4H; Q15056; 290,000 tested, 0.94% active; inhibition, % at 35 µM; eIF4H fluorescence polarization binding assay; AID 2012;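 active = 50% or more with normal probe brightness, or confirmed in later tests; inconclusive = above 50% with abnormal brightness, or retests that disagree; inactive = below 50% or failed in later tests; about a fifth of its hits are not listed in these tables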;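 note: calls also rest on retests at 20 µM and on dose response follow-up; 0% = protein and probe with vehicle and 100% = probe without protein; strong numbers were not always called active; many hits fall short of the cut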
PABP FP inh: PABP-poly(A) binding inhibition; 290,000 tested, 1% active; PABP-poly(A) RNA binding, fluorescence polarization; AID 2014; inhibition, % at 35 µM; P11940;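 active = 50% or more with normal probe brightness, or confirmed in later tests; inconclusive = above 50% with abnormal brightness, or retests that disagree; inactive = below 50% or failed in later tests; about a fifth of its hits are not listed in these tables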;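 note: calls also rest on retests at 20 µM and on dose response follow-up; controls were probe without protein and protein plus probe with vehicle; some compounds called inactive have numbers as strong as hits; many hits fall short of the cut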
HIV Env fusion: blocks HIV Env-driven cell-cell fusion; HeLa-JRFL Env/CEM21 cell fusion, luciferase; inhibition, % at 12.3 µM; 360,000 tested, 1.1% active; AID 651610;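 active = mean replicate inhibition score of at least 50 and every replicate individually at or above 50; inconclusive = only one of the two criteria met; inactive = mean below 50 and not all replicates reaching 50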;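 note: 0% = plate neutral controls and 100% = maraviroc near 300 nM; one replicate is shown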
MT1-MMP act inh: inhibitors of human MT1-MMP activation; HT1080 RFP-PRO-GFP cells, GFP/RFP ratio fluorescence, overnight; percent of plate control window, DMSO zero; GFP/RFP ratio change, % at 20 µM; 360,000 tested, 0.061% active; AID 651647;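 active = GFP/RFP ratio change of at least 30% with cell ATP level not reduced by more than half and red fluorescence within 50% of control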; note: strong numbers were not always called active
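Assay system – RFP-PRO-GFP reporter HT1080 cells · Compound dosing – single dose of 20 µM compound, 1% DMSO final · Incubation – overnight compound exposure at 37 °C · Measure – GFP/RFP fluorescence ratio · Benchmarks – DMSO wells and RFP-L50D-GFP cells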
Rce1 inhib: blocks yeast Ras-converting enzyme; yeast membranes, quenched prenylated peptide cleavage fluorescence; 290,000 tested, 0.27% active; calls only; Q03530;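 active = fall in fluorescence gain of 50% or more versus controls, with final raw signal at or below 3038400; inconclusive = same 50% fall but final raw signal above 3038400; inactive = fall in fluorescence gain under 50%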;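 note: plate controls were neutral control wells for no effect and wells lacking membranes for full effect; tested at 10 µM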
Target sequence (Q03530 whole entry, looked up): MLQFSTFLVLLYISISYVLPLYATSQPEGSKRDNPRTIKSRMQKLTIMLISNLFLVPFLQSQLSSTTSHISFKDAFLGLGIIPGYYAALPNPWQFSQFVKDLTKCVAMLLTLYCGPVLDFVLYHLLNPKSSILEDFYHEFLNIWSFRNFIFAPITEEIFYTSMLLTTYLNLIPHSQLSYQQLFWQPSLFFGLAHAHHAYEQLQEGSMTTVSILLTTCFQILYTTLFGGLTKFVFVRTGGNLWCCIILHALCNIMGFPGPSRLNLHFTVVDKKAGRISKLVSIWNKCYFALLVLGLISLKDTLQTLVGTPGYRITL
MT1-MMP act inh RFP: second read-out of MT1-MMP act inh, no call of its own (marks repeat the call); RFP signal change, %; measured here: RFP expression control read;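 0 = vehicle wells; hits needed this value within 50% of zero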
* hit, by the source's call; i = inactive; ? = inconclusive; nt = no result given. These rows are one share of the data; the hit share may differ from the screen's.

SMILES | CSC inhib | UUG fidelity | eIF4H FP inh | PABP FP inh | HIV Env fusion | MT1-MMP act inh | MT1-MMP act inh RFP | Rce1 inhib
NC(=O)COC(=O)c1ccc(-c2ccccc2)cc1 | 6 | -2 | -4 | -14 | -40 | -3 | -1 | i
N#CCSc1nnc(COc2cccc3ccccc23)n1-c1cccc(Cl)c1 | nt | 0 | 4 | 3 | 33 | -9 | -17 | i
O=C(NCc1ccc(Cl)c(Cl)c1)c1ccco1 | -7 | nt | 3 | 4 | nt | 0 | -1 | i
Cc1ccccc1Cn1cc(NC(=O)c2cc(-c3ccco3)on2)cn1 | 61 | nt | 10 | 3 | -16 | 0 | -2 | i
CCC(=O)NNC(=O)CCC(=O)Nc1ccccc1 | nt | nt | -4 | -2 | nt | nt | nt | i
O=C(Nc1cccc(O)c1)c1cccc(C(=O)Nc2cccc(O)c2)c1 | -12 | -2 | -2 | 7 | -11 | 3 | -5 | i
Cc1ccc(C)c(S(=O)(=O)C(C#N)c2nc3ccccc3nc2N2CCCC2)c1 (stereo unspecified) | 14 | -15 | ? | ? | -75 | 2 | 2 | i
CCOc1ccc(C(=O)C[n+]2cccc3cc(C)ccc32)cc1 | -3 | -3 | ? | ? | -18 | -75 | -16 | i
CCc1nc2ccc(C(=O)NCCN3CCOCC3)cn2c1N(CCC(C)C)CCN(C)C | nt | -15 | nt | nt | -5 | 2 | 3 | nt
COc1cc(C)ccc1S(=O)(=O)n1nc(C)cc1C | -5 | -16 | -6 | -7 | 4 | -11 | -6 | i
CC(C)(C)c1ccc(S(=O)(=O)N2CCN(C3CCCC3)CC2)cc1 | 33 | 8 | -5 | 3 | -2 | 4 | -8 | i
O=C(CSc1nnc(-c2cccc(Cl)c2)o1)Nc1ccc2c(c1)OCCO2 | -12 | -22 | 0 | 9 | -170 | 0 | -2 | i
COCCn1c(SCC(=O)NC2CCCC2)nc2c(c1=O)SCC2 | -7 | -21 | -9 | 6 | -5 | 0 | 1 | i
CN(C(=O)C(Cl)Cl)C1CC2C=CC1C2 (stereo unspecified) | -3 | -3 | -3 | 3 | 11 | 0 | 1 | i
Fc1ccccc1OCCCCn1cncn1 | 1 | -4 | 2 | -5 | nt | -1 | -1 | i
Cc1cc(CSCc2ccc(Cl)cc2)no1 | -1 | 9 | 4 | 9 | -9 | -1 | 4 | i
Cc1c(C(=O)NCC2COc3ccccc3O2)oc2ccc(S(=O)(=O)N(C)C3CCCCC3)cc12 (stereo unspecified) | 16 | -10 | 2 | 3 | nt | -5 | -11 | i
O=C(O)c1ccc(CSc2nc3ccc(N4C(=O)C5C6C=CC(C6)C5C4=O)cc3s2)cc1 (stereo unspecified) | -1 | nt | 1 | -4 | nt | 3 | 10 | i
O=S(=O)(NC1CCCCCCC1)c1ccccc1F | -18 | -2 | -9 | 2 | 8 | -1 | -3 | i
CCN(CC(=O)Nc1ccccc1C(F)(F)F)C(=O)CCc1ccccc1 | -8 | 3 | -1 | -12 | -11 | 1 | 6 | i
N#Cc1ccc(C(=O)CSc2nnc(-c3ccc(C(F)(F)F)cn3)s2)cc1 | 6 | -16 | 0 | -8 | 19 | 0 | -3 | i
CCOC(=O)N1CCC(NC(=O)C2CCC(CNS(=O)(=O)c3ccc(OC)cc3)CC2)CC1 (stereo unspecified) | nt | -23 | 0 | 4 | nt | 3 | -2 | nt
Cc1noc2ncnc(Oc3cc(Cl)ccc3Cl)c12 | -4 | nt | 5 | 6 | 17 | 2 | 5 | i
COCCn1ccc(O)c(Cc2ccccc2)c1=O | -3 | -10 | -2 | -10 | nt | 2 | 1 | i
COc1ccc(C(CNC(=O)CCNC(=O)c2ccc(Br)cc2)N2CCOCC2)cc1 (stereo unspecified) | -14 | -8 | nt | nt | -16 | -3 | 1 | i
COc1cc(C)c(CN2CCN(CC(=O)Nc3ccccc3C(=O)NC3CC3)CC2)cc1OC | -16 | -14 | nt | nt | -11 | 3 | 1 | nt
COc1ccc2c(CC(=O)NNC(=O)c3ccc(C)cc3)coc2c1 | -3 | -1 | nt | nt | -10 | -1 | 2 | nt
O=C(Nc1ccc([N+](=O)[O-])cc1)Nc1ccc2[nH]c(=O)[nH]c2c1 | 5 | -25 | -1 | -12 | 17 | 3 | -11 | i
O=C(CNC(=O)c1ccc(S(=O)(=O)N2CCCC2)cc1)N/N=C/c1ccco1 | -7 | -5 | 7 | -6 | -8 | 3 | 0 | nt
COc1ccccc1NS(=O)(=O)c1cc(C(=O)NCCCN2CCCC2=O)ccc1C | nt | -6 | nt | nt | 4 | -2 | -1 | nt
Cc1ccccc1NC(=O)CC(O)(C(F)(F)F)C(F)(F)F | nt | -7 | 5 | -1 | -40 | 4 | 2 | i
Nc1ccccc1C(=O)NCc1ccc(Cl)cc1 | -6 | -19 | -3 | 4 | 9 | 4 | 4 | i
COc1cc2c(cc1OC)CN(CC(=O)Nc1ccc(Cl)cc1Cl)CC2 | 9 | -6 | 5 | 9 | 23 | 5 | -7 | i
Nc1cc(-c2ccccc2)nn1S(=O)(=O)c1ccc(Br)cc1 | 14 | -5 | 7 | 0 | 19 | -1 | -5 | i
CC(CC(=O)NNC(=O)c1cccc(Cl)c1)c1ccccc1 (stereo unspecified) | nt | -15 | -7 | -4 | 0 | -1 | -5 | i
O=[N+]([O-])c1cc(-c2cnc3ccccc3n2)ccc1Oc1ccc(Br)cc1 | 58 | -14 | 4 | -2 | 4 | 2 | -7 | i
CC(=O)Nc1ccc(S(=O)(=O)NC2CC3CCC2C3)cc1 (stereo unspecified) | -5 | -6 | 2 | -1 | 19 | 6 | 0 | i
COCC1CCCC1OS(N)(=O)=O (stereo unspecified) | 14 | -22 | -5 | 5 | -8 | 1 | 6 | i
O=C(CSc1cccc[n+]1[O-])Nc1cc(S(=O)(=O)N2CCOCC2)ccc1Cl | -1 | nt | -6 | -11 | nt | -3 | 4 | i
O=C(c1ccc2[nH]ccc2c1)N1CCCC(Nc2ccccc2)C1 (stereo unspecified) | nt | -21 | 3 | 2 | -2 | 1 | 1 | i
O=C(NC1CCN(S(=O)(=O)c2ccccc2)CC1)c1cccc(F)c1 | 2 | -13 | 6 | 8 | -7 | 1 | -1 | i
Cc1cs/c(=N\N=C\c2ccccc2)n1Cc1ccco1 | 4 | -16 | 0 | -10 | 10 | 0 | -5 | nt
CC1CC=C(c2ccccc2)C(=S)N1 (stereo unspecified) | -12 | -25 | 0 | 11 | -8 | 4 | 3 | i
CC1(C(=O)NCc2cccc(C(F)(F)F)c2)CCN1Cc1ccc2ccccc2c1 (stereo unspecified) | nt | 14 | nt | nt | 3 | -5 | -7 | nt
Cc1ccc(N=Cc2sccc2C)cc1C | -5 | -15 | -8 | -16 | 2 | 5 | 10 | i
CCOC(=O)c1ccc(N2C(=O)CC(N3CCC(Nc4ccc(F)cc4)CC3)C2=O)cc1 (stereo unspecified) | -6 | -20 | 0 | 2 | 16 | -4 | 3 | i
CCOC(=O)C1(C)CCN1C(=O)c1ccc(OC)cc1OC (stereo unspecified) | nt | -14 | nt | nt | 20 | -1 | 6 | nt
CCOc1ccccc1N(CC(=O)NC(C)(C)C)C(=O)c1ccc(CN2CCOCC2)o1 | -20 | nt | -18 | -5 | -63 | 1 | -2 | i
Cc1nn2c(N3CCN(C(=O)c4ccco4)CC3)cc(C(C)(C)C)nc2c1-c1ccccc1 | 12 | nt | 7 | -8 | nt | nt | nt | i
S=C1NCCOCCOCCOCCOCCNC(=S)NCCOCCOCCOCCOCCN1 | -19 | -27 | 3 | 0 | -42 | -1 | 5 | i
C/C(CCc1ccco1)=N\NC(=O)CNc1cccc2ccccc12 | -16 | -24 | 35 | -1 | 26 | 5 | 11 | i
CCOc1ccc(-c2nnc(SCC(=O)NC3CC3)o2)cc1 | -13 | -8 | nt | nt | nt | 3 | -1 | nt
O=C(NCCO)c1cc2c([nH]c3ccccc32)c(-c2ccc(F)cc2)n1 | 6 | -10 | -6 | 5 | 17 | -1 | -7 | i
Cc1ccccc1-c1nnc(SCC(=O)NC2CCCC2)o1 | -9 | -7 | -4 | -4 | 2 | 0 | -1 | i
Cc1cc(SCc2cccc([N+](=O)[O-])c2)nc(=O)[nH]1 | -8 | -6 | 8 | -6 | 2 | 1 | 4 | i
C=CCNC(=O)Cn1nc(-c2ccccc2)ccc1=O | 6 | -21 | 2 | -4 | nt | -4 | -6 | i
CC(C)Cc1c(O)nc(SCCN2CCOCC2)[nH]c1=O | -5 | -8 | -8 | -4 | -62 | 1 | 5 | i
O=C(CNc1ccc(F)cc1)N/N=C/C1CC=CCC1 (stereo unspecified) | -12 | nt | 5 | -3 | 4 | 2 | 2 | i
Cc1ccc(NCC(=O)NNC2=NCCC2)c(C)c1 | 1 | -9 | 2 | 1 | 5 | 3 | 6 | i
Cc1cc(NC(=O)CSc2nc(=O)n(CCN(C)C)c3c2CCCC3)no1 | -10 | -7 | nt | nt | -13 | -2 | 6 | i

Reprinted from the part before: 2 entries; new compounds follow.
SMILES | CSC inhib | UUG fidelity | eIF4H FP inh | PABP FP inh | HIV Env fusion | MT1-MMP act inh | MT1-MMP act inh RFP | Rce1 inhib
Cc1ccc(NCC(=O)NNC2=NCCC2)c(C)c1 | 1 | -9 | 2 | 1 | 5 | 3 | 6 | i
Cc1cc(NC(=O)CSc2nc(=O)n(CCN(C)C)c3c2CCCC3)no1 | -10 | -7 | nt | nt | -13 | -2 | 6 | i
O=C(N/N=C/c1cccc([N+](=O)[O-])c1)c1cc(-c2ccc3c4c(cccc24)CC3)n[nH]1 | 24 | -10 | 7 | 5 | 6 | -2 | 1 | i
COc1ccc(C(=O)N2CCOC2CNC(=O)C(=O)NCc2ccccc2)cc1 (stereo unspecified) | nt | -10 | nt | nt | -15 | -2 | 2 | nt
Cc1ccc(CCN2CC(C(=O)NCCCN3CCC(C)CC3)CC2=O)cc1 (stereo unspecified) | -1 | 9 | nt | nt | 2 | 2 | 3 | i
CCOC(=O)C1=C(c2ccccc2)OC(N)=C(C#N)C1c1ccc(Br)s1 (stereo unspecified) | 1 | 0 | 3 | 46 | -4 | 0 | 6 | i
COc1cccc(-n2c(N)c(C#N)c3ccc([N+](=O)[O-])cc3c2=O)c1 | nt | nt | 1 | 2 | -4 | nt | nt | i
CCOc1cc2[nH]c(=O)n(Cc3ccc(C(=O)NCCCN4CCC(C)CC4)cc3)c(=O)c2cc1OCC | 0 | 0 | -10 | 42 | 9 | 0 | -3 | i
O=C(CSc1ccc(F)cc1)N1CCC(c2nc3ccccc3s2)CC1 | ? | 9 | -1 | -1 | nt | -1 | -24 | i
COC(=O)c1ccc(NC(=O)CC2C(=O)N(c3ccc(C)cc3)C(=O)N2CC(C)C)cc1 (stereo unspecified) | -11 | -18 | -8 | -6 | -28 | 0 | -7 | i
O=C(CNC(=S)NC(=O)c1ccc(Br)o1)c1ccccc1 | 34 | nt | -7 | 3 | nt | 3 | 6 | i
O=C(c1cc2ccccc2[nH]1)N1CCOCC1 | 2 | nt | 9 | 17 | -44 | -4 | 8 | i
Cc1ccccc1NC(=O)c1cccc(NC(=O)CCC(=O)O)c1 | -8 | nt | 1 | -13 | 1 | -3 | 1 | i
CC(C)CNC(=O)C1(C)CCCN1C(=O)c1cncc(Br)c1 (stereo unspecified) | nt | -14 | nt | nt | -12 | -1 | 4 | nt
Cc1cc(C)n(CCCNC(=O)C2CC(=O)N(Cc3ccccc3)C2)n1 (stereo unspecified) | -14 | nt | nt | nt | -1 | -2 | 2 | i
CCC(C(=O)c1ccc(O)cc1)c1ccccc1 (stereo unspecified) | 2 | -16 | 7 | 6 | -31 | -1 | -2 | i
O=C(CCN1CCCCCC1)Nc1ccc(F)cc1 | -2 | -19 | -12 | -8 | -8 | 5 | -2 | i
